# Screening data: PubChem, National Center for Advancing Translational Sciences (NCATS)
# ClpP mod – qHTS Assay for Activators of ClpP. purified B. subtilis ClpP, FRET peptide cleavage, 20 min. Potency, µM (highest dose often 57.5 µM), for the others: at the highest dose activity change, negative = active. 1.9% of 340,000 active. AID 651965, 2013; active = well fitted falling curve with a large enough effect; inconclusive = small, poorly fitted or top-dose-only effect; inactive = no such curve, though single readings can be large or run the other way; further: potency means the concentration at half of the fitted maximal effect; the source files actives as falling curves though it sought activators and does not explain the sign; nearly all actives have a fitted effect of over 65% in size; many hits overshoot -100%
# Target sequence (P80244 whole entry, looked up): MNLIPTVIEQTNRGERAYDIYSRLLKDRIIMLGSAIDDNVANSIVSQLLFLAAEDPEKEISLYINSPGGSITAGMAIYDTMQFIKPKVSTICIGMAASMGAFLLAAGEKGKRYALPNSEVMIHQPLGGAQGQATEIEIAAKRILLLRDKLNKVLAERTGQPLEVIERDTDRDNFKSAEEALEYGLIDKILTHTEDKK
#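 Buffer: 100 mM Tris/HCl pH8, 100 mM KCl, 0.05% low protease BSA, 2.5% glycerol, 0.01% Tween-20. ClpP 10 microg/mL final; 20 min RT; delta FRET normalized to ADEP and DMSO controls.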
# Sfp inh – qHTS Assay for Inhibitors of Bacillus subtilis Sfp phosphopantetheinyl transferase (PPTase). Biochemical Sfp PPTase activity, qHTS. Potency, µM, without a hit: max response, negative = inhibition, usual class: inhibitors. 3.5% of 310,000 active. AID 1490, 2009; active means well fitted inhibition curve with a large enough effect; inconclusive means small, poorly fitted or top-dose-only effect, or another doubt; inactive means no such curve, though single readings can be large or run the other way;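 further: the enzyme is Sfp with the accession as filed and its product quenches rhodamine fluorescence; potency means the concentration at half of the fitted maximal effect; 0% = enzyme reaction without inhibitor and -100% = no enzyme wells; top concentration of the series not given in the record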
#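 Buffer: 50 mM Hepes-Na pH 7.6, 10 mM MgCl2, 0.01% Nonidet P-40, 0.01% BSA. Enzyme 15 nM, pre-exposed to compound 15 min; substrates then added and fluorescence change tracked over 30 min.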
# TRPML1 ag – qHTS for Agonists of the Human Mucolipin Transient Receptor Potential 1 (TRPML1). activation, % (no concentration beside the values). AID 624414, 2012. 0.12% of 410,000 active. TRPML1-expressing cells, Ca2+ dye fluorescence, FDSS; host cell line not named in the record; reference of the full effect not given here; in the data active = activation above about 50%; inconclusive = about 30% to 50%; inactive = below about 30%; further: 0% is about no effect; the text of the record puts the active cut at 80%
#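 Agonist activity was taken from a 110 s kinetic Ca2+ dye read on the FDSS after pinning compounds onto TRPML1-DL cells. The cells were seeded at 1,500/well with Tet inducer, incubated about 16 h, then dye-loaded at room temperature.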
# PINK1 modulator – A Quantitative High throughput Screen to Identify Chemical Modulators of PINK1 Expression; PINK1 immunofluorescence, high-content cytometry, 24 h; 0.2% of 410,000 active; Potency, µM (top dose mostly 76.6 µM), for the others: at the top dose activation (PINK1 increase), actives largely listed as activators; active = well fitted activation curve with a large enough effect; inconclusive = small, poorly fitted or top-dose-only effect; inactive = flat fitted curve, though single readings scatter; cell line not stated here;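 further: potency means the concentration at half of the fitted maximal effect; % of control where 0% means no effect; nearly all actives have a fitted effect of over 65% in size; a mitochondrial uncoupler was the plate control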
#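 Cells are seeded, rested 12 hours, then given compound at five concentrations or DMSO for 24 hours. After fixation, blocking and antibody staining, PINK1 amount and mitochondrial localization are scored; CCCP serves as control.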
# TRPV1 PAM – HTS Assay for Compounds that Act as Potentiators of the Vanilloid Receptor 1. potentiation, % at 8.33 µM. TRPV1-expressing cells, Fluo-8 calcium influx, capsaicin EC20 potentiation; host cell line not named in the record; control for the full effect not named in the record. Transient receptor potential cation channel subfamily V member 1 (Homo sapiens), Q8NER1. AID 540277, 2011. 0.02% of 320,000 active; active means potentiation above 80%; inconclusive means 30% to 80%; inactive means below 30%; further: 0% is about no effect
# Target sequence (Q8NER1 whole entry, looked up): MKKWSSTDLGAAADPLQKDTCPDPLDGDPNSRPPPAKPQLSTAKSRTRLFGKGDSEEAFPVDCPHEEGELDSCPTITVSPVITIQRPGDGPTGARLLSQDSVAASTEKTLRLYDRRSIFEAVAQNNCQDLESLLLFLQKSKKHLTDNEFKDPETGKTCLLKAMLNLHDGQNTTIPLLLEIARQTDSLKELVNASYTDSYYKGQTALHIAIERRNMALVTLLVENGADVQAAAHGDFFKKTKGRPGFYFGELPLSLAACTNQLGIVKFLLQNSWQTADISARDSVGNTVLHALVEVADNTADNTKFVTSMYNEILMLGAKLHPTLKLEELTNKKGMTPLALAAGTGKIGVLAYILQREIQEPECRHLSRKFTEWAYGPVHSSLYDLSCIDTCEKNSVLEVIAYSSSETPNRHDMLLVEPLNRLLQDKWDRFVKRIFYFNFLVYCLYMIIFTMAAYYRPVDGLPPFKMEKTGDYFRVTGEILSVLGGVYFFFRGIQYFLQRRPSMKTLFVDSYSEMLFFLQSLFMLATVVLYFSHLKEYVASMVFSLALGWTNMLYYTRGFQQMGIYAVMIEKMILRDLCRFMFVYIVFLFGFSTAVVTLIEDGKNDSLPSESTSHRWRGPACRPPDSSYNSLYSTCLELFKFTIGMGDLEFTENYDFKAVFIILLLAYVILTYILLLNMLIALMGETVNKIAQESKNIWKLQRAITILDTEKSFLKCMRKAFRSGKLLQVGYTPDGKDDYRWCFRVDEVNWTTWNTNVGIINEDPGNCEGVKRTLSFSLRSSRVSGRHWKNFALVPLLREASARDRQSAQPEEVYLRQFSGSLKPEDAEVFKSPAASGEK
#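 Cells expressing TRPV1 were dye-loaded with Fluo-8 and read kinetically: 10 s baseline, 3 min after compound (agonist portion), then 2 min after EC20 capsaicin (allosteric enhancer portion). Calcium-bound dye fluorescence at 480/520 nm.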
# Menin-MLL FL inh – qHTS Assay for Inhibitors Targeting the Menin-MLL Interaction in MLL Related Leukemias: Competition With Fluorescein Labeled MLL-derived Peptide; AID 1766, 2009; Fluorescence polarization, fluorescein-MLL peptide displacement from menin; 290,000 tested, under 10 active; FP activity change, % at 61.4 µM; inconclusive = falling polarisation curve, or a change in total fluorescence; inactive = total fluorescence flat and polarisation flat or rising; no compound was filed as active; the % refers to the polarisation; negative = inhibition;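 further: % of control where 0% means no effect; inhibitors lower the polarisation; unlabelled MLL peptide was the positive control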
# TRPML1 inh – qHTS for Inhibitors of the Human Mucolipin Transient Receptor Potential 1 (TRPML1) | Mucolipin-1 (Homo sapiens), Q9GZU1 | TRPML1-inducible cells, Ca2+ dye fluorescence, FDSS; hits give low values; inhibition of EC80 agonist-evoked calcium signal | activity change, negative = inhibition, % (concentration not given with the values) | 0.02% of 390,000 active; in the data active means activity change below about -50%; inconclusive means about -30% to -50%; inactive means above about -30%;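 further: stimulus is agonist 54-4 at its EC80 concentration; on the % scale 0 is the no-effect control and ±100 the full control effect; compound concentration not given in the record; the text of the record puts the active cut at -80%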
#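 TRPML1-DL cells, Tet-induced overnight (~16 h, 37 °C) at 1,500 cells/well, were loaded with Ca8 no-wash dye plus quencher for 45-90 min at room temperature. Compounds were pinned during FDSS kinetic reading; agonist 54-4 at EC80 (4 uM final) then added.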
# Starred values were filed as active, the others as inactive; ? = inconclusive; / = not tested or not shown; & = joins results of further samples; [ ] = dose if it differs, or a comment. Compounds were not picked by outcome (roughly 4.4% active in at least one column).
SMILES,ClpP mod,Sfp inh,TRPML1 ag,PINK1 modulator,TRPV1 PAM,Menin-MLL FL inh,TRPML1 inh
COc1ccccc1NC(=O)C1=C(C)Nc2nc3ccccc3n2C1c1cccc(Br)c1 (configuration not stated),?,/,-0.6,4.2%,/,/,5
O=[N+]([O-])c1ccc(COc2ccccc2CN2CCCC2)cc1,-0.3%,/,-0.4,-0.4%,/,/,33
O=c1cc(-c2ccccc2)n(S(=O)(=O)c2ccc3ccccc3c2)o1,-3.2%,/,-0.4,-2.2%,/,/,6
Cc1[nH]c2ccccc2c1C(=O)CSC(=S)N1CCCCC1,-2.8%,-12%,-0.1,2.4%,-23,/,-20
Cc1ccccc1NC(=O)CN(c1ccc(F)cc1)S(C)(=O)=O,-1.6%,16%,-0.4,-1.3%,0,-1.3,12
Cc1ccc(NC(=O)CSc2ccc(-c3cccs3)nn2)cc1Cl,-1.0%,/,0.4,-0.3%,/,/,-14
CC(=O)Nc1ccc(N=Cc2c(O)c3ccccc3oc2=O)cc1,-0.5%,-2%,/,4.3%,6,-7.0,/
CN1CC[n+]2c(CN3C(=O)c4ccccc4C3=O)csc21,-1.9%,-3%,0.5,0.9%,0,2.4,1
COc1ccc(CCn2c(NN)nc3c2c(=O)[nH]c(=O)n3C)cc1,/,50µM*,-0.4,5.8%,4,0.8,-16
CCS(=O)(=O)Nc1ccccc1C(N)=O,/,22%,-0.6,0.9%,-14,2.8,13
C=C(C)C1Cc2c(C)nn(-c3nc(C)cc(C)n3)c2C1 (configuration not stated),1.4%,8%,1.1,-0.6%,-14,0.4,24
O=C(NC1CC(=O)N(c2ccccc2)C1)c1ccc(Br)o1 (configuration not stated),0.3%,/,0.1,0.0%,/,/,-3
C/C(=N\NC(=O)C(C)Sc1ccccc1)C(C)(C)C (configuration not stated),-3.8%,10%,5.7,0.3%,-3,-5.0,9
Cc1ccccc1CNC(=O)c1ccccc1NC(=O)c1nsc2ccccc12,1.1%,/,0.3,-0.1%,/,/,-16
COc1cccc(-c2nc(-c3ccccn3)no2)c1OC,-1.7%,10%,-1.0,-0.1%,-5,7.6,2

# Whole records, looked up by structure.
# O=[N+]([O-])c1ccc(COc2ccccc2CN2CCCC2)cc1 is listed as ClpP mod: -0.3%; Sfp inh: /; TRPML1 ag: -0.4; PINK1 modulator: -0.4%; TRPV1 PAM: /; Menin-MLL FL inh: /; TRPML1 inh: 33
# C=C(C)C1Cc2c(C)nn(-c3nc(C)cc(C)n3)c2C1 (configuration not stated) is listed as ClpP mod: 1.4%; Sfp inh: 8%; TRPML1 ag: 1.1; PINK1 modulator: -0.6%; TRPV1 PAM: -14; Menin-MLL FL inh: 0.4; TRPML1 inh: 24

# Remaining list, next part:
SMILES,ClpP mod,Sfp inh,TRPML1 ag,PINK1 modulator,TRPV1 PAM,Menin-MLL FL inh,TRPML1 inh
O=[N+]([O-])c1ccc(S(=O)(=O)NCc2nc3cccnc3n2Cc2ccccc2Cl)cc1,-1.5%,/,0.9,2.6%,/,/,41
Cc1ccc(S(=O)(=O)N(C)CCCC(=O)NC(C)(C)C)cc1,/,18%,-0.2,0.6%,2,0.6,4
S=C(Nc1cc(Cl)cc(Cl)c1)N1CCCC1,-0.5%,4%,0.5,-0.2%,-9,1.0,-2
Cc1cc(C)c2nc(SCC(=O)Nc3cc(C)on3)c(C#N)cc2c1,/,-6%,6.8,?,17,?,7
O=C(NCc1nnnn1-c1ccc(F)c(F)c1)c1ccc(S(=O)(=O)N2CCOCC2)cc1,35µM*,/,0.3,-0.8%,11,/,9
CCN(CC(=O)Nc1c(F)cccc1F)C(=O)CCCc1cccs1,-3.4%,/,0.0,5.5%,-16,/,14
COc1cc(C(=O)NNC(=S)Nc2ccc(S(N)(=O)=O)cc2)cc(OC)c1OC,/,13µM*,-0.4,3.3%,11,-2.1,-18
Cn1c(=O)c2c(nc(SCCN3CCOCC3)n2Cc2ccc(F)cc2)n(C)c1=O,-1.7%,12%,0.0,3.0%[38.3 µM],13,1.5,-4
Cc1ccc2c(=O)cc(C(=O)NCc3ccccc3)oc2c1C,-6.0%,2%,1.4,0.1%,9,-1.6,-2
O=C(CCc1nc(-c2ccccc2F)no1)NC1CCCCC1,-3.2%,4%,-0.1,0.7%[38.3 µM],-3,2.2,17
Cc1ccncc1C(N)=O,0.9%,9%,/,-0.7%,-9,3.3,/
COc1cccc(CN(C)C(=O)CN2C(=O)NC(c3ccccc3)(c3ccccc3)C2=O)c1OC,-0.3%,/,0.1,1.4%,14,/,12
CC(C)n1cc(/C=C2/SC(=O)N(CC(=O)Nc3ccc4c(c3)OCO4)C2=O)c2ccccc21,2.1%,-10%,-0.2,?,0,2.2,-3
CCN(CC(=O)NCc1ccc(Cl)cc1)C(=O)CSc1cc(C)ccc1C,/,/,3.0,-1.9%,4,/,20
Cc1ccc(S(=O)(=O)N2CCCCC2)cc1NC(=O)C1COc2ccccc2O1 (configuration not stated),-0.7%,/,0.5,1.2%,/,/,4
CC(=O)Nc1nc(C)c(-c2csc(Nc3cccc([N+](=O)[O-])c3)n2)s1,1.1%,-8%,-0.4,-3.8%,23,-0.5,0
C/C(=N\Nc1cc(-c2ccccc2)nc(-c2ccccc2)n1)c1ccc(O)c(C)c1,-16%,12%,1.1,-2.8%,-52,0.0,1
COc1ccc(CNC(=O)CN(C(=O)CCC(=O)Nc2ccccn2)c2ccccc2OC)cc1,-2.5%,7%,0.5,1.4%,-1,-3.6,-17
COCCN(Cc1ccco1)C(=O)C1CCCN(c2ncnc3c2nc2n3CCCCC2)C1 (configuration not stated),-0.5%,5%,-0.7,-1.3%,-9,/,-3
Cc1c(C)c2ccc(OCC(=O)N3CCN(c4ccc(F)cc4)CC3)c(C)c2oc1=O,-11%,10%,-0.5,2.0%,1,-1.1,2
CC(C)c1ccc(CN2CC(C(=O)Nc3ccccc3)CC2=O)cc1 (configuration not stated),-1.5%,12%,3.6,-0.8%,15,-1.3,3
COc1cc(-c2c(-c3cc(OC)c(OC)c(OC)c3)noc2C)ccc1F,0.6%&-1.9%,-7%,-0.9&1.8,2.5%,-17,0.1,18
CN(Cc1cnn(-c2ccccc2)c1)C(=O)c1ccc(S(=O)(=O)NCc2ccco2)cc1,1.0%,/,-0.7,0.6%,/,/,-8
CCOc1ccc(S(=O)(=O)c2cn(Cc3ccc(OC)cc3)c3ccc(F)cc3c2=O)cc1,-14%,/,1.2,-0.9%,/,/,18
Cn1c(=O)c2c(nc(NCc3ccco3)n2CC(O)CO)n(C)c1=O (configuration not stated),-0.6%,5%,-0.4,0.2%,15,-1.5,-8
COc1ccccc1NC(=O)CC1CCCC1,/,6%,0.5,0.5%,-3,-1.1,-13
CCOc1ccc(Cn2nnc(C(=O)Nc3cc(OC)cc(OC)c3)c2N)cc1,112%,5%,-0.2,7.0%,-3,1.5,-3
CCOn1c(SC(C)C)nc2ccccc2c1=O,-0.2%,-4%,0.6,-2.1%,-2,-1.9,11
Cn1nc(-c2ccc(N3CCOCC3)c(NS(=O)(=O)c3ccc(Cl)cc3)c2)c2ccccc2c1=O,?,-4%,0.7,1.6%,-4,-0.6,49
Cc1ccc(NC(=O)C(C)OC(=O)CSc2ccccc2)cc1 (configuration not stated),-0.2%,/,-0.1,-0.8%,/,/,-3
O=C(c1csnn1)N1CCC2(CC1)CN(c1ncccn1)C2,/,-6%,/,0.3%,/,0.4,/
CCN(CC)c1ccc(NC(=O)CSc2nnc(N)s2)cc1C,0.9%,9%,0.5,2.0%,-7,-1.4,0
COC(C(=O)Nc1ccc(Cl)cc1C)c1ccccc1 (configuration not stated),0.7%,-5%,0.9,-0.3%,10,-0.5,60
O=C1Nc2ccc(Br)cc2/C1=C/C1CC=CCC1 (configuration not stated),1.3%,9%,1.3,0.1%,-8,-2.5,-6
C[C@@H](C(=O)NC1CCCCC1)N1C(=O)N2CCc3c([nH]c4ccccc34)[C@@]2(C)C1=O,-2.0%,9%,/,2.1%,-1,-1.3,/
Cc1n[nH]c(C)c1S(=O)(=O)N1CCCC(C(=O)N2CCc3ccccc32)C1 (configuration not stated),-1.8%,15%,0.3,1.1%,24,1.9,?
CCOC(=O)c1c(Nc2cccc(C(=O)OC)c2)nnc(-c2ccccc2)c1-c1ccccc1,-0.8%,/,2.8,-4.3%,/,/,-5
COc1ccc(-c2c(C)nn(-c3ccccc3)c2N)cc1,1.4%,13%,-0.5,6.6%[38.3 µM],-24,0.8,1
Cc1cccc(CSc2nc(N)c(C#N)c(-c3cccs3)c2C#N)c1,?,24%,-0.2,/,20,7.6,1
COc1ccccc1N1CCN(S(=O)(=O)c2ccc3nc(-c4ccccc4)[nH]c3c2)CC1,1.1%,29%,-0.4,4.4%,-4,7.9,-12
Cc1cccc(NC(=O)CSc2nnc(CNC(=O)c3ccco3)n2C)c1C,0.7%,/,0.1,0.1%,6,/,-18
O=c1[nH]n(-c2ccccc2)c(=O)c(Cl)c1Cl,-1.1%,19%,0.6,0.9%[38.3 µM],6,1.7,8
CCN(CC)S(=O)(=O)c1ccc2[nH]c(=O)c3ccccc3c2c1,-3.6%,20%,-0.6,5.0%,0,-4.6,-3
COc1ccccc1CNC(=O)CSCc1nc(-c2ccc(OC)c(OC)c2)oc1C,?,/,1.1,-1.0%,/,/,4
CN(Cc1ccccc1)C(=O)COC(=O)c1cc([N+](=O)[O-])ccc1N1CCOCC1,-2.1%,/,-1.3,1.1%,2,/,-12
COc1ccc(NC(=O)CCCOc2ccc(C(C)=O)cc2)cc1S(=O)(=O)N1CCCCC1,1.6%,/,0.5,0.5%,/,/,1
